LANA-H2B inh = blocks KSHV LANA binding to histone H2A/H2B. Q9QR71. AID 2629. 320,000 tested, 0.6% active. inhibition, % (no concentration beside the values). cell-free LANA-H2A/H2B peptide, fluorescence polarization; in the data active = inhibition mostly above about 10%, no sharp cut-off; inactive = mostly below about 6.7%;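 note: stock transfer was 7.5 nL into about 10 µL; 0% = median of vehicle wells and 100% = median of positive control wells; one replicate is shown; the record names a cut of 25% in any replicate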
RanGTP-Impb inh = inhibitors of RanGTP-importin-beta interaction, primary screen, biochemical, FRET, CFP-Ran, YFP-importin-beta, homogeneous | cell-free CFP-Ran/YFP-importin-beta FRET ratio | inhibition, % (concentration not given with the values) | 300,000 tested, 1.1% active | AID 2216;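 active = most replicates above 15%; inconclusive = exactly half above 15%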;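 note: 0% = DMSO wells and 100% = Ran loaded with GDP instead of GTP; wells of about 40 µL received 100 nL stock; the first replicate is given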
UCH37 inh = blocks the human deubiquitinase UCH37. Q9Y5K5. purified proteasome/UCH37, Ub-AMC cleavage fluorescence. inhibition, % (test concentration not listed). 330,000 tested, 0.33% active. AID 588478;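 active = mean of two replicates above 20%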;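 note: 0% = compound-free wells with enzyme and 100% = wells lacking proteasome; stock transfer was 100 nL into about 20 µL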
Target sequence (Q9Y5K5 whole entry, looked up): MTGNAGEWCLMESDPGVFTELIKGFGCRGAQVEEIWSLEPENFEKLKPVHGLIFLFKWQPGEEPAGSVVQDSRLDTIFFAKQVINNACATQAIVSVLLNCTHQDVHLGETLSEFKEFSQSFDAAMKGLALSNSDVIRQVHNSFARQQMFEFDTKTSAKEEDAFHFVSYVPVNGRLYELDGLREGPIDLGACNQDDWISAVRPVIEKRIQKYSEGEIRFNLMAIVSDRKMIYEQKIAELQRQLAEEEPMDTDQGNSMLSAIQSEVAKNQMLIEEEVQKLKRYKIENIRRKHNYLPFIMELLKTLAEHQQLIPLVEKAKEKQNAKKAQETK
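Reagent: Ub-AMC substrate; assay system: Proteasome-associated human UCH37 deubiquitinase; controls: no-proteasome and no-compound wells; read-out: % inhibition of Ub-AMC cleavage fluorescence; timing: 30 min preincubation with enzyme, 25 min cleavage at room temperature; signal: AMC fluorescence from Ub-AMC cleavage, excitation 355 nm, emission 460 nm; buffer or medium: Tris-HCl pH 7.4 plus ovalbumin, ATP-MgCl2, DTT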
A1 inh = inhibitors of the anti-apoptotic protein A1, read as caspase activation | 330,000 tested, 0.066% active | MEF A1-2A-BIM cells, Caspase-Glo 3/7 luminescence, 3 h; percent of clofoctol response, vehicle zero | caspase activation, % (no concentration beside the values);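 active = over half of replicate activation scores above 10%, or exactly half above 10 with the replicate mean above 10; inconclusive = replicate mean below 10 yet half the replicates above 10; inactive = over half of replicates below 10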;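 note: wells of about 30 µL received 50 nL stock; many hits fall short of the cut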
Calb FLC = affects C. albicans growth with fluconazole; growth inhibition, % (no concentration beside the values); C. albicans CaCi-2 (fluconazole-resistant clinical isolate) + fluconazole, Alamar Blue growth, 48 h; AID 1979; 300,000 tested, 0.57% active;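 active = most replicates above 75%; inconclusive = exactly half above 75%; inactive = most below 75%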;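 note: all wells also contain fluconazole at 8 µg/ml as a sub-toxic cotreatment; 0% = median of DMSO wells and 100% = median of geldanamycin control wells; wells of about 8 µL received 7.5 nL stock; the first replicate is given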
T cruzi repl = blocks replication of Trypanosoma cruzi | AID 1885 | T. cruzi beta-gal in NIH3T3, luminescence, 90 h | 300,000 tested, 1.4% active | inhibition, % (concentration not given with the values);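 active = mean inhibition across valid replicates above about 55%, limit read from the data; inconclusive = mean below that limit but half or more replicates reach it; inactive = mean below it, under half of replicates reach it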;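 note: signal also drops with host cell toxicity which is not excluded here; 0% = plate median of DMSO wells and 100% = zero luminescence signal; higher percent means less beta-gal luminescence so fewer parasites; stock transfer was 50 nL into about 50 µL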
Beta2AR agonist = agonists of human beta-2 adrenergic receptor inducing internalization. P07550. Am2.2-beta2AR cells, FAP receptor internalization, flow cytometry; reference of the scale not given here. response, % (no concentration beside the values). 340,000 tested, 0.43% active;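 active = response above a set limit, near 3 SD of response in nonfluorescent compounds, cut at about 42% in these data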;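 note: stock transfer was 100 nL into about 11 µL; a reference agonist was the positive control; negative values mostly stem from fluorescent compounds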
Target sequence (P07550 whole entry, looked up): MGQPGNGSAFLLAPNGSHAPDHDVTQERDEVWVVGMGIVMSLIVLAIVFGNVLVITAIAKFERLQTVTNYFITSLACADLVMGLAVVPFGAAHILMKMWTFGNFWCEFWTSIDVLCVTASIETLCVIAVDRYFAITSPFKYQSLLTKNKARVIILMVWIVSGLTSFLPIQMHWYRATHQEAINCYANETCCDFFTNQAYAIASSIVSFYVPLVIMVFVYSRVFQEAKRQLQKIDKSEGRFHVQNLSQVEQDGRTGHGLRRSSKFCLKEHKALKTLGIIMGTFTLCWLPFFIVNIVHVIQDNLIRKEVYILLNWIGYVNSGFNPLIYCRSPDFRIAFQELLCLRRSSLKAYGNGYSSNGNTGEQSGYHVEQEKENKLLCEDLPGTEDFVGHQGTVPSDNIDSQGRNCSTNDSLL
Beta cell apopt = blocks beta cell apoptosis; 300,000 tested, 0.8% active; protection from apoptosis, % (test concentration not listed); AID 435005; INS-1E cytokine-induced death, ATP luminescence, 48 h; percent of positive-control rescue, neutral wells zero;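 active = all replicates at 75% or more, or half of them and the mean; inconclusive = half reach 75% but not the mean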;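 note: 0% = cytokine-treated negative control wells and 100% = positive control rescue; higher means more ATP so stronger rescue from cytokine killing; wells of about 40 µL received 100 nL stock; the first replicate is given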
An asterisk follows results filed as active; ? = inconclusive; . = not tested or not shown; & = joins results of further samples. An excerpt (hit frequency here may not be typical).

Preview:
Every second line gives: LANA-H2B inh, RanGTP-Impb inh, UCH37 inh, A1 inh, Calb FLC, T cruzi repl, Beta2AR agonist, Beta cell apopt
Oc1cc2c(cc1O)[C@H]1c3ccc(O)c(O)c3OC[C@@]1(O)C2
  -3.4, ., ., 1.6, ., ., 1, -18
Cc1ccc(=O)n(-c2ccccc2)c1
  -3.1, 4.0, 0.9, 0.1, -3, -4, -2, .
COc1ccc(C[C@H]2COC(=O)[C@@H]2Cc2ccc(OC3OC(CO)C(O)C(O)C3O)c(OC)c2)cc1OC (stereo partly drawn)
  4.2, 0.5, 0.8, -0.3, 0, -14, 1, 9
O=C(O)c1cccnc1Nc1cccc(C(F)(F)F)c1
  -1.9&5.2, ?, 2.4, -0.1, ., -10, -3, 6
NC1CCN(c2nc3c(cc2F)c(=O)c(C(=O)O)cn3-c2ccc(F)cc2F)C1 (stereo not drawn)
  3.3, 3.5, -6.6, 1.0, ., -16, 2, 6
COC(=O)C1=CO[C@@H](O[C@@H]2O[C@H](CO)[C@@H](O)[C@H](O)[C@H]2O)C2C1C[C@H](O)[C@@H]2C (stereo partly drawn)
  1.7, ., 1.3, 0.9, ., ., 1, 1

This part in full, from the first entry:
Every second line gives: LANA-H2B inh, RanGTP-Impb inh, UCH37 inh, A1 inh, Calb FLC, T cruzi repl, Beta2AR agonist, Beta cell apopt
Oc1cc2c(cc1O)[C@H]1c3ccc(O)c(O)c3OC[C@@]1(O)C2
  -3.4, ., ., 1.6, ., ., 1, -18
Cc1ccc(=O)n(-c2ccccc2)c1
  -3.1, 4.0, 0.9, 0.1, -3, -4, -2, .
COc1ccc(C[C@H]2COC(=O)[C@@H]2Cc2ccc(OC3OC(CO)C(O)C(O)C3O)c(OC)c2)cc1OC (stereo partly drawn)
  4.2, 0.5, 0.8, -0.3, 0, -14, 1, 9
O=C(O)c1cccnc1Nc1cccc(C(F)(F)F)c1
  -1.9&5.2, ?, 2.4, -0.1, ., -10, -3, 6
NC1CCN(c2nc3c(cc2F)c(=O)c(C(=O)O)cn3-c2ccc(F)cc2F)C1 (stereo not drawn)
  3.3, 3.5, -6.6, 1.0, ., -16, 2, 6
COC(=O)C1=CO[C@@H](O[C@@H]2O[C@H](CO)[C@@H](O)[C@H](O)[C@H]2O)C2C1C[C@H](O)[C@@H]2C (stereo partly drawn)
  1.7, ., 1.3, 0.9, ., ., 1, 1
CCCCCC(=O)O[C@]1(C(C)=O)CC[C@H]2[C@@H]3CCC4=CC(=O)CC[C@]4(C)[C@H]3CC[C@@]21C
  0.1, 0.8, 5.4, -0.6, 6, 46, 4, -12
CCn1cc(C(=O)O)c(=O)c2cnc(N3CCNCC3)nc21
  2.1, -3.0, ., 0.7, ., -12, ., 1
NC(N)=O
  1.7, -1.4, 0.4, 0.3, ., -21, ., -4
NOCC(=O)O
  -2.9, ., 0.7, -0.6, ., ., -1, 6
CC1(C)O[C@H]2CC(=O)OC[C@@]23C1CC(=O)[C@]1(C)C3CC[C@@]2(C)[C@H](c3ccoc3)OC(=O)[C@H]3O[C@]321 (stereo partly drawn)
  -1.6, ., 2.2, 0.2, ., ., 3, -3
C1COC(NC(C2CC2)C2CC2)=N1
  0.4, 1.1, 2.2, -0.1, ., 4, 5, -6
C[N+]1(C)CCC(=C(c2ccccc2)c2ccccc2)CC1
  15*, ., 2.1, -0.1, ., ., -5, -4
CCCc1nc(C(C)(C)O)c(C(=O)O)n1Cc1ccc(-c2ccccc2-c2nn[nH]n2)cc1
  -4.4, 1.8, 4.0, 2.0, 4, -15, ., .
COc1ccc(-c2cc(=O)c3c(O)cc(OC4OC(COC5OC(C)C(O)C(O)C5O)C(O)C(O)C4O)cc3o2)cc1O (stereo not drawn)
  2.6, -5.1, 14, 0.1, 4, -7, 10, -5
C/C=C(/C)C(=O)OC(C)(C)[C@@H]1Cc2c(ccc3ccc(=O)oc23)O1
  -1.9, 7.8, -80, -0.2, -21, 8, -7, -1
COc1cc(-c2oc3cc(O)cc(O)c3c(=O)c2O[C@@H]2O[C@H](COC3O[C@@H](C)[C@H](O)[C@@H](O)[C@H]3O)[C@@H](O)[C@H](O)[C@H]2O)ccc1O (stereo partly drawn)
  1.6, ., 3.7, 1.7, ., ., 24, -4
CC(C)=CCOc1c2ccoc2cc2oc(=O)ccc12
  7.3, 1.2, 2.3, 0.6, 0, 3, -17, 0
Cc1cccc2c1NC(=O)C2(c1ccc(O)cc1)c1ccc(O)cc1
  -1.6, -3.4, -1.4, 1.3, -6, 23, 19, -1
CCC(NC(C)C)C(O)c1ccc(O)c2[nH]c(=O)ccc12 (stereo not drawn)
  1.0, 7.0, 4.4, 0.8, ., 12, 28, 5

Shown comma-delimited: part of the list above.
Structure,LANA-H2B inh,RanGTP-Impb inh,UCH37 inh,A1 inh,Calb FLC,T cruzi repl,Beta2AR agonist,Beta cell apopt
Oc1cc2c(cc1O)[C@H]1c3ccc(O)c(O)c3OC[C@@]1(O)C2,-3.4,.,.,1.6,.,.,1,-18
Cc1ccc(=O)n(-c2ccccc2)c1,-3.1,4.0,0.9,0.1,-3,-4,-2,.
COc1ccc(C[C@H]2COC(=O)[C@@H]2Cc2ccc(OC3OC(CO)C(O)C(O)C3O)c(OC)c2)cc1OC (stereo partly drawn),4.2,0.5,0.8,-0.3,0,-14,1,9

Next section
Every second line gives: LANA-H2B inh, RanGTP-Impb inh, UCH37 inh, A1 inh, Calb FLC, T cruzi repl, Beta2AR agonist, Beta cell apopt
CC1Cc2ccccc2N1NC(=O)c1ccc(Cl)c(S(N)(=O)=O)c1 (stereo not drawn)
  -24, 1.0, 2.1, ., ., 21, 11, .
N[C@@H](Cc1c[nH]c2ccc(O)cc12)C(=O)O
  -3.8, ., 3.0, 1.5, ., ., -10, -4
Cc1cncn1CCc1nc2c3ccccc3nc(SCC(=O)Nc3cccc(Cl)c3)n2n1
  ., -1.7, 5.5, 0.5, 6, 41, 18, -1
CN1CCCN=C1COC(=O)C(O)(c1ccccc1)C1CCCCC1 (stereo not drawn)
  -14, 2.1, ., -0.1, ., -5, -5, 8
CCOC(=O)[C@H](CCc1ccccc1)N[C@@H](C)C(=O)N1Cc2ccccc2C[C@H]1C(=O)O
  2.4, 6.1, 4.9, 2.3, ., -1, 10, -4
COc1ccc(-c2cc(=O)c3c(O)cc(O[C@@H]4O[C@H](CO[C@@H]5O[C@@H](C)[C@H](O)[C@@H](O)[C@H]5O)[C@@H](O)[C@H](O)[C@H]4O)cc3o2)cc1O
  1.3, -8.5, 8.0, 0.6, -7, -1, 0, -3
CCCCNc1ccc(C(=O)OCCN(C)C)cc1
  -2.5&5.8, 0.6, 0.5, 0.0, -11, 27, -9, -8
Cc1c(C(=O)O)c(O)cc2c1C(=O)c1c(O)c([C@@H]3O[C@H](CO)[C@@H](O)[C@H](O)[C@H]3O)c(O)c(O)c1C2=O
  -2.8, ., 6.7, -0.1, ., ., 5, 9
COc1ccc(C2CNC(=O)C2)cc1OC1CCCC1 (stereo not drawn)
  -1.3, 4.6, 1.2, -1.7, ., 12, 1, -1

Screens as filed in PubChem.
